Screening data from PubChem.
LANA-H2A inh: blocks KSHV LANA binding to histone H2A/H2B | actives 0.6% (n = 320,000) | AID 2629 | inhibition, % (test concentration not listed) | cell-free LANA-H2A/H2B peptide, fluorescence polarization; in the data active = inhibition mostly above about 10%, no sharp cut-off; inactive = mostly below about 6.7%;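 also: stock transfer was 7.5 nL into about 10 µL; 0% = median of vehicle wells and 100% = median of positive control wells; one replicate is shown; the record names a cut of 25% in any replicate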
Beta cell apopt: beta cell apoptosis inhibition | INS-1E cytokine-induced death, ATP luminescence, 48 h; percent of positive-control rescue, neutral wells zero | protection from apoptosis, % (test concentration not listed) | actives 0.8% (n = 300,000);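 active = all replicates at 75% or more, or half of them and the mean; inconclusive = half reach 75% but not the mean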;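 also: 0% = cytokine-treated negative control wells and 100% = positive control rescue; higher means more ATP so stronger rescue from cytokine killing; wells of about 40 µL received 100 nL stock; the first replicate is given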
T cruzi inh: blocks replication of Trypanosoma cruzi. T. cruzi beta-gal in NIH3T3, luminescence, 90 h. inhibition, % (no concentration beside the values). AID 1885. actives 1.4% (n = 300,000);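 active = mean inhibition across valid replicates above about 55%, limit read from the data; inconclusive = mean below that limit but half or more replicates reach it; inactive = mean below it, under half of replicates reach it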;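 also: signal also drops with host cell toxicity which is not excluded here; 0% = plate median of DMSO wells and 100% = zero luminescence signal; higher percent means less beta-gal luminescence so fewer parasites; stock transfer was 50 nL into about 50 µL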
A1 inh: inhibitors of the anti-apoptotic protein A1, read as caspase activation. caspase activation, % (no concentration beside the values). MEF A1-2A-BIM cells, Caspase-Glo 3/7 luminescence, 3 h; percent of clofoctol response, vehicle zero. actives 0.066% (n = 330,000);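 active = over half of replicate activation scores above 10%, or exactly half above 10 with the replicate mean above 10; inconclusive = replicate mean below 10 yet half the replicates above 10; inactive = over half of replicates below 10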;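 also: wells of about 30 µL received 50 nL stock; many hits fall short of the cut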
Calb FLC: affects C. albicans growth with fluconazole; C. albicans CaCi-2 (fluconazole-resistant clinical isolate) + fluconazole, Alamar Blue growth, 48 h; actives 0.57% (n = 300,000); AID 1979; growth inhibition, % (test concentration not listed);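 active = most replicates above 75%; inconclusive = exactly half above 75%; inactive = most below 75%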;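 also: all wells also contain fluconazole at 8 µg/ml as a sub-toxic cotreatment; 0% = median of DMSO wells and 100% = median of geldanamycin control wells; wells of about 8 µL received 7.5 nL stock; the first replicate is given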
ALR inh: inhibitors of human sulfhydryl oxidase ALR. P55789. purified ALR, DTT oxidation, H2O2 HRP-luminol luminescence. inhibition, % (no concentration beside the values). actives 3.8% (n = 290,000). AID 485317;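 active = mean and each replicate at 75% or more; inconclusive = only one of the two met; inactive = neither met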;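 also: stock transfer was 7.5 nL into about 7.5 µL; 0% = neutral wells and 100% = wells with inactivated enzyme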
Target sequence (P55789 whole entry, looked up): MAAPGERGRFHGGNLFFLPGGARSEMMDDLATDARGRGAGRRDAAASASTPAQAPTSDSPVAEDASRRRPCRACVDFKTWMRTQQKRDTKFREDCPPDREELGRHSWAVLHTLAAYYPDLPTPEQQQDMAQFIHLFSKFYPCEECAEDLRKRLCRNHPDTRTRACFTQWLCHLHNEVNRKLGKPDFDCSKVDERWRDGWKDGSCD
Beta2AR agonist: agonists of human beta-2 adrenergic receptor inducing internalization | P07550 | Am2.2-beta2AR cells, FAP receptor internalization, flow cytometry; reference of the scale not given here | response, % (concentration not given with the values) | actives 0.43% (n = 340,000) | AID 504454;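 active = response above a set limit, near 3 SD of response in nonfluorescent compounds, cut at about 42% in these data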;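 also: stock transfer was 100 nL into about 11 µL; a reference agonist was the positive control; negative values mostly stem from fluorescent compounds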
Target sequence (P07550 whole entry, looked up): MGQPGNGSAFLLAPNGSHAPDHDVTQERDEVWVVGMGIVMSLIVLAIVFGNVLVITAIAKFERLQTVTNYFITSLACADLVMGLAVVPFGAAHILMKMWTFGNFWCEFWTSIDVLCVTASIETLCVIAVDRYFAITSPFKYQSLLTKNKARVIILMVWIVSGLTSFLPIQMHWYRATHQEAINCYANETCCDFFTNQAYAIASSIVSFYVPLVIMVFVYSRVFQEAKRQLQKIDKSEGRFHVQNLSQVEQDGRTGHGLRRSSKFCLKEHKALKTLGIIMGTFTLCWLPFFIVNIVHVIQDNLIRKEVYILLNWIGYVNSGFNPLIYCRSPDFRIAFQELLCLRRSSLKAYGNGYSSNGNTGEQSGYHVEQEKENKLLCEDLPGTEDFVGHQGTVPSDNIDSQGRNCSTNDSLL
Ecoli rRNA inh: inhibits bacterial ribosomal RNA function over humanized ribosomes; actives 1.6% (n = 350,000); AID 720706; E. coli WT GFP vs humanized-ribosome RFP mutants, fluorescence, 24 h; stronger effect = lower value; DMSO median 0, no signal -100; GFP signal change (wild-type ribosome), % (concentration not given with the values);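 active = significant combined selectivity score with lowered wild-type GFP, culture density cut under 30%, mutant RFP and density less affected; inactive = any of these conditions unmet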; also: one replicate is shown; some compounds called inactive have numbers as strong as hits
Ecoli rRNA inh OD600: second read-out of Ecoli rRNA inh, no call of its own (marks repeat the call); OD600 change, %; measured here: OD600 growth;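 optical density of the mix in the first replicate; 0 = DMSO median and -100 = no signal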
Ecoli rRNA inh RFP: recorded beside Ecoli rRNA inh, whose call it bears; RFP signal change, %; measured here: RFP humanized mutant strains;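 first replicate; 0 = DMSO median and -100 = no signal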
Active calls of the source: *; ? = inconclusive; / = not tested or not shown. Some of the compounds tested; count on the stated rates, not on these rows.

Values run as follows: LANA-H2A inh	Beta cell apopt	A1 inh	Calb FLC	Ecoli rRNA inh	T cruzi inh	Ecoli rRNA inh OD600	ALR inh	Ecoli rRNA inh RFP	Beta2AR agonist
O=C(c1ccc(Cl)cc1)C1CCN(CC(=O)N2CCCCC2)CC1
  -6.0	-6	-0.6	-5	6	32	4	-15	-0.4	-4
Fc1cccc(CSc2nc3ccncc3[nH]2)c1
  -0.3	6	-2.3	2	1	8	4	23	-3.8	-1
CCOC(=O)C(=CNc1ccccc1N1CCOCC1)C(=O)OCC
  0.2	7	-0.2	-10	-24	4	-21	-7	2.3	-4
COc1ccc(N(C(=O)c2ccc(S(=O)(=O)N3CCCC3)cc2)C2C=CS(=O)(=O)C2)cc1 (stereo unspecified)
  4.2	5	0.0	-1	5	-9	3	-2	-0.2	-4
CCOC(=O)C1(CCc2ccccc2)CCN(Cc2ccn[nH]2)CC1
  -2.6	-3	-0.1	-10	/	-26	/	2	/	3
O=C(C1CC1)N1N=C(c2ccccc2)CC1(O)C(F)(F)C(F)(F)F (stereo unspecified)
  -1.0	-4	-0.4	-4	3	-3	6	-12	0.3	31
NC(N)=NC(N)=Nc1ccc2ccccc2c1
  1.6	-7	0.5	-4	14	-40	9	-5	3.5	0
CCOC(=O)n1cc(-c2cnc(CNC(=O)C(C)(c3ccccc3)c3ccccc3)o2)c2ccccc21
  7.7	/	1.2	15	-2	39	3	0	-2.4	/
O=C(CSc1nc2ccccc2o1)N1CCN(S(=O)(=O)c2ccc3ccccc3c2)CC1
  2.9	2	1.1	-5	/	-11	/	22	/	8
Cc1cccc(N(CC(=O)Nc2cccnc2)S(C)(=O)=O)c1
  -1.5	-3	0.2	2	9	-10	2	/	1.3	3
CC(C)Cn1c(N)c(C(=O)COC(=O)c2ccc3c(c2)OCCO3)c(=O)n(C)c1=O
  0.0	19	-0.6	?	/	31	/	-9	/	-3
CCOC(=O)c1c(C)[nH]c(C(=O)OCC(=O)N(CC(C)C)c2c(N)n(Cc3ccccc3)c(=O)[nH]c2=O)c1C
  -3.6	/	-0.1	35	0	2	16	-9	5.3	1
COc1ccccc1NCc1cc(=O)oc2c(C)c(O)ccc12
  2.6	5	-0.5	12	-4	2	-34	56	-4.5	13
Cc1cc(C)cc(C(=O)Nc2ccc(NC(=O)c3cccs3)cc2)c1
  3.0	10	-0.3	3	3	21	6	-9	-0.6	-18
CN1CCN(C(=O)CCn2c(=O)c3cccn3c3cccnc32)CC1
  3.1	0	0.9	4	4	20	19	2	-2.6	-7
CC(=O)c1c(C)n(CC(=O)NCc2ccc3c(c2)OCO3)c2ccccc12
  -5.5	8	0.6	-28	/	-36	/	-5	/	6
Cn1c(SCC(=O)c2ccccc2)nnc1-c1ccc(O)cc1
  0.1	/	-1.5	-4	/	0	/	34	/	-8
O=[N+]([O-])c1ccc(Cl)c(/C=N/n2c(COc3ccccc3)n[nH]c2=S)c1
  -4.0	5	0.3	?	5	-23	9	96*	2.5	7
COCCNC(=O)c1cc(-c2cccs2)on1
  1.2	25	0.1	11	4	7	4	/	-0.1	-2
Cc1cc(C=C2C(=O)c3ccccc3C2=O)c(C)n1-c1ccccc1
  2.0	-2	-12	8	/	0	/	1	/	-7
CCOC(=O)N1CCN(C(=O)c2cc(-c3ccc(OCC)cc3)nc3ccccc23)CC1
  2.8	11	0.3	-25	/	-17	/	-14	/	21
C/C(=N\Nc1c([N+](=O)[O-])c(C)nn1C)c1ccc(F)cc1F
  0.3	9	0.0	0	6	7	5	/	-1.8	-11
On1nnc2c3ccccc3c3ccccc3c21
  0.7	1	0.3	-13	-19	-4	-36	-8	-9.6	16
COc1ccc(Cl)cc1NC(=S)NCc1cccnc1
  1.9	-6	0.5	-2	6	1	-5	-25	-3.5	2
Cc1ccc(NC(=O)CN2c3cccc4cccc(c34)S2(=O)=O)cc1S(=O)(=O)N1CCOCC1
  -0.1	4	0.3	-3	/	0	/	-23	/	5
CCOC(=O)/C=C(\C)Nc1cc(C)nn1-c1ccccc1
  1.0	/	-0.4	-9	/	-1	/	-13	/	-1
Cn1c(Cc2cccc3ccccc23)nnc1SCC(=O)N1CCN(c2cccc(Cl)c2)CC1
  7.2	6	-0.3	2	/	19	/	-3	/	-4
COc1ccc(CCC(=O)NCCOc2ccc(Cl)cc2)cc1
  -4.0	-3	0.0	9	-4	-2	-10	-2	-7.7	-2
COc1cccc(-c2cc(C(F)(F)F)nc(N3CCCCC3)n2)c1
  0.9	12	0.7	29	/	24	/	0	/	2
COc1ccc(C(F)(F)F)cc1N/C=C/c1nnnn1-c1ccc(C)cc1
  3.7	-5	-0.1	0	5	5	6	0	-3.4	-5

Reprinted from the part before: two compounds, then new ones.
Values run as follows: LANA-H2A inh	Beta cell apopt	A1 inh	Calb FLC	Ecoli rRNA inh	T cruzi inh	Ecoli rRNA inh OD600	ALR inh	Ecoli rRNA inh RFP	Beta2AR agonist
COc1cccc(-c2cc(C(F)(F)F)nc(N3CCCCC3)n2)c1
  0.9	12	0.7	29	/	24	/	0	/	2
COc1ccc(C(F)(F)F)cc1N/C=C/c1nnnn1-c1ccc(C)cc1
  3.7	-5	-0.1	0	5	5	6	0	-3.4	-5
O=C(CCc1nc2ccccc2c(=O)[nH]1)NCc1cccc(Cl)c1
  -8.6	0	0.1	/	/	/	/	/	/	-2
Cc1cccc(C)c1Nc1nnc(SCC(=O)c2ccc3c(c2)NC(=O)CO3)s1
  1.5	10	-0.3	27	/	2	/	-1	/	0
Cc1ccc(CNC(=O)COc2ccc(S(=O)(=O)NC(C)C)cc2)cc1
  3.0	-9	0.2	39	/	-1	/	-2	/	6
Cc1ccc(C(=O)Nc2cccnc2)cc1NC(=O)c1ccco1
  5.0	2	0.2	-13	/	2	/	-18	/	-1
COC(=O)/C(=C\Nc1ccc(Oc2ccc(F)cc2F)nc1)NC(=O)c1ccccc1
  0.5	-2	0.9	2	18	-1	3	-8	5.2	-7
C=CCN1C(=O)C2C(C(=O)NC)C3C=CC2(O3)C1C(=O)NCc1ccc(OC)cc1 (stereo unspecified)
  -2.7	-2	-1.1	8	/	8	/	2	/	-12
CCOC1=NC(C(=O)O)c2ccccc2/C(=C(/C)Cl)N1 (stereo unspecified)
  -5.3	0	-0.3	-1	/	-7	/	1	/	26
CNC(=O)/C(C#N)=C/c1c(N2CC(C)OC(C)C2)nc2ccccn2c1=O (stereo unspecified)
  -2.4	5	0.3	-14	5	-13	11	-2	1.8	-15
CCCCNC(=O)c1c(CSc2ccccc2)noc1C(=O)NCc1ccccc1
  4.2	-2	-0.4	-3	8	12	6	-3	1.1	12
COc1ccc(C(=O)NC(=S)N(C)Cc2ccccc2)cc1Br
  -1.0	-2	0.1	29	-4	5	0	-3	-3.1	-6
COc1ccccc1NS(=O)(=O)c1cc(NC(=O)c2[nH]c(C)c(C(C)=O)c2C)ccc1N1CCOCC1
  1.8	47	2.3	6	-13	22	-8	-4	21	19
O=C(CC1Sc2ccccc2NC1=O)Nc1cccc(-c2nnc3n2CCCCC3)c1 (stereo unspecified)
  0.8	-8	-0.8	8	/	-7	/	/	/	-4
CC1(C)CC(O)(CNCc2ccc3c(c2)OCO3)CCO1 (stereo unspecified)
  -2.2	/	0.4	-1	/	8	/	-3	/	9
CCc1nc2nc(C)c(NS(=O)(=O)c3ccc(Cl)s3)c(=O)n2[nH]1
  -0.7	-1	-0.5	2	3	-13	7	19	-2.4	1
O=C(N/N=C/c1ccc2c(c1)OCO2)C1CC1
  -0.8	0	0.8	5	17	-3	15	-4	2.1	-4
O=C(CNS(=O)(=O)c1ccccc1)NCc1ccccn1
  -0.3	-4	-1.1	3	/	2	/	-1	/	1
CN(C)c1ncc([N+](=O)[O-])cc1C(F)(F)F
  2.4	13	0.5	-3	5	-1	-6	/	2.2	3
COc1cc(/C=C(/C#N)C(=O)NCc2ccccc2)cc(OC)c1OC
  -0.7	/	1.3	-11	-16	4	-7	41	2.8	24
Cc1ccc(-n2cnc3scc(-c4cccs4)c3c2=O)cc1
  -4.9	-5	0.3	-2	/	17	/	-2	/	-16
CCCCN1C(=O)NC2NC(=O)NC21 (stereo unspecified)
  1.8	-1	0.7	7	/	-9	/	-5	/	1
O=c1c2cnn(-c3ccccc3Cl)c2ncn1Cc1cccnc1
  6.1	0	1.5	-4	5	-3	-11	6	-8.7	7
O=C(/C=C/c1ccc2c(c1)OCO2)N1CCN(c2ccc(Cl)cc2)CC1
  4.0	-3	-0.1	-8	9	-9	2	-4	-2.3	-8
CS(=O)(=O)c1sc(C(=O)NC(=O)Nc2cccc(C(F)(F)F)c2)c2c1C=CCC2
  4.5	5	-0.1	7	22	-14	6	-15	3.1	-1
Cc1cccc(N2CCN(C(=O)CCS(=O)(=O)c3ccc4c(c3)NC(=O)C(C)S4)CC2)c1C (stereo unspecified)
  5.4	13	-0.8	-4	3	3	10	-3	-1.3	13
COc1ccc2nc(NC(=O)NC3CCCCC3)sc2c1
  -42	-8	0.1	-1	-23*	7	-18*	4	7.3*	-4
O=C(Nc1cccc(-n2cnnn2)c1)c1ccco1
  -0.6	6	-0.4	-4	/	4	/	11	/	-20
